NS1 inh = influenza NS1 inhibition | S. cerevisiae slowed by influenza A NS1, growth recovery by OD600 | actives 0.4% (n = 270,000) | Potency, µM (top dose mostly 46.1 µM), without a hit: at the top dose activity, positive = more growth | AID 2326; also: actives are rising curves; nearly all actives have a fitted effect of over 50% in size
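In this qHTS, NS1 from influenza A is expressed in budding yeast, where it slows growth. Cells are switched from glucose to 2% galactose medium (pH 6.0, -URA), treated with compound, and growth recovery is read at OD600.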
StopGo reporter = lowers the luciferase signal of an FMDV 2A StopGo reporter. human cells with a luciferase reporter of 2A StopGo recoding; control for the full effect not named in the record. Potency, µM (highest dose often 57.9 µM), without a hit: top-dose signal change, negative = less light. actives 1.2% (n = 410,000). AID 1159524; active = well fitted falling curve with a large enough effect; inconclusive = small, poorly fitted or top-dose-only effect; inactive = no such curve, though single readings can be large or run the other way; tested in HEK293T cells; also: % is scaled to controls: 0 for no effect and ±100 for the full control effect; nearly all actives have a fitted effect of over 45% in size; luciferase light after 4 h
LASV entry inh = Lassa virus entry inhibition; AID 540256; Potency, µM (doses to about 37.9 µM), without a hit: at the highest dose activity change, negative = inhibition, most hits filed as inhibitors; Lassa virus pseudotype entry inhibition, cell reporter; control for the full effect not named in the record; actives 1.2% (n = 300,000); active means well fitted inhibition curve with a large enough effect; inconclusive means small, poorly fitted or top-dose-only effect, or effect the other way; inactive means flat fitted curve, though single readings scatter; tested in HEK293 cells; also: % is scaled to controls: 0 for no effect and ±100 for the full control effect; nearly all actives have a fitted effect of over 50% in size; luciferase read-out
MARV entry inh = blocks Marburg virus binding to or entry into cells. AID 540276. actives 1.8% (n = 300,000). Potency, µM (titrated, usually from 37.8 µM), for the others: top-dose activity change, negative = inhibition, usual class: inhibitors. Marburg virus pseudotyped entry inhibition, cell reporter; control for the full effect not named in the record; about a third of the inactives were read at about 46 µM; active = well fitted inhibition curve with a large enough effect; inconclusive = small, poorly fitted or top-dose-only effect, or effect the other way; inactive = flat fitted curve, though single readings scatter; tested in HEK293 cells; about a fifth of its hits are not listed in these tables; also: % is scaled to controls: 0 for no effect and ±100 for the full control effect; luciferase read-out
SARS PLP yeast = inhibitors of SARS-CoV papain-like protease in yeast | S. cerevisiae expressing SARS-CoV PLpro, growth rescue; control for the full effect not named in the record | actives 0.19% (n = 330,000) | Potency, µM (top dose mostly 32.9 µM), without a hit: at the top dose activity, positive = growth rescue | AID 485353; also: 0% is about no effect; nearly all actives have a fitted effect of over 55% in size; growth read by luminescence after 48 h
Cruzain Triton = inhibitors of Trypanosoma cruzi cruzain with detergent. Potency, µM, for the others: max response, negative = inhibition, most hits filed as inhibitors. actives 0.43% (n = 200,000). P25779. AID 1478. purified cruzain, Z-FR-AMC fluorescence, 0.01% Triton; active = well fitted curve in the direction sought with a large enough effect; inconclusive = small, poorly fitted or top-dose-only effect, or another doubt; inactive = no such curve, though single readings can be large; an effect the other way counts as inactive or inconclusive;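 also: plate controls were neutral wells for no effect and buffer without enzyme for full effect; nearly all actives have a fitted effect of over 40% in size; top concentration of the series not given in the record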
Target sequence (P25779 123-467 limits assumed): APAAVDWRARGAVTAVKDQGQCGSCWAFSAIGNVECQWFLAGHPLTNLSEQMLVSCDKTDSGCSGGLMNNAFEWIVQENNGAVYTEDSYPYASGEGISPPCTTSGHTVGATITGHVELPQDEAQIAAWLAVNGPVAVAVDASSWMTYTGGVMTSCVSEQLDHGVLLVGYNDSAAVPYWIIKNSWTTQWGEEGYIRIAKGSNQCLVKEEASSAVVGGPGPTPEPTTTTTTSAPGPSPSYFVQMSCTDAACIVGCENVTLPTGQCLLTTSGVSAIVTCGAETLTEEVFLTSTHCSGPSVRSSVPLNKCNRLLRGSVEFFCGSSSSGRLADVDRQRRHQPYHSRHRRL
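Purified cruzain (1.5 nM final) was preincubated with compounds for 15 min at room temperature in 100 mM sodium acetate pH 5.5, 5 mM DTT, 0.01% Triton X-100. Reaction started with 2 uM Z-FR-AMC; AMC fluorescence change over 60 s gave activity.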
RE007 growth inh = less growth of the S. pombe RE007 Vpr strain | S. pombe RE007 Vpr strain, BacTiter-Glo ATP luminescence, 24 h; control for the full effect not named in the record | Potency, µM (titrated, usually from 92.2 µM), for the others: top-dose activity change, negative = less growth | actives 0.21% (n = 360,000) | AID 651644; active = well fitted falling curve with a large enough effect; inconclusive = small, poorly fitted or top-dose-only effect; inactive = no such curve, though single readings can be large or run the other way;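 also: % is scaled to controls: 0 for no effect and ±100 for the full control effect; nearly all actives have a fitted effect of over 50% in size; the assay follows cell death caused by Vpr and the record does not say whether a fall means rescue or toxicity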
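Fission yeast RE007 carrying one integrated HIV-1 vpr copy, seeded at OD 0.01 in PMG+AL medium with 23 nL pinned compound. Grown 24 h at 30 degrees; viability read by BacTiter-Glo luminescence after 5 min.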
Cruzain inh noDet = blocks cruzain activity in detergent-free assay | P25779 | purified cruzain, Z-FR-AMC fluorescence, no detergent | Potency, µM, without a hit: max response, negative = inhibition, actives largely listed as inhibitors | actives 2.3% (n = 200,000); active = well fitted curve in the direction sought with a large enough effect; inconclusive = small, poorly fitted or top-dose-only effect, or another doubt; inactive = no such curve, though single readings can be large; an effect the other way counts as inactive or inconclusive;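 also: plate controls were enzyme without inhibitor for no effect and buffer without enzyme for full effect; nearly all actives have a fitted effect of over 40% in size; top concentration of the series not given in the record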
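Detergent-free condition (0.00005% Triton X-100) in acetate buffer pH 5.5 with DTT. 1.5 nM enzyme and compound were pre-mixed 15 min, then 2 uM Z-FR-AMC substrate added; reaction progress from fluorescence change between first and third reads (60 s).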
* hit, by the source's call; & = joins results of further samples; [ ] = another dose, or the depositor's remark. Unless noted, calls follow the shape of the dose curve; as a rule, active means well fitted rising curve with a large enough effect; inconclusive means small, poorly fitted or top-dose-only effect; inactive means no such curve, though single readings can be large or run the other way. Potency is read from the fitted curve at half-maximal effect.

`O=C1CCCc2cc(S(=O)(=O)N3CCC(C(=O)NCc4ccccc4)CC3)ccc2N1` gave NS1 inh -7%, StopGo reporter -13%, LASV entry inh -14%[46.1 µM], MARV entry inh -5%[46.1 µM], SARS PLP yeast -1% and RE007 growth inh 12%.
Screening Cc1ccc(-n2ncc(C#N)c2N)cc1 returned NS1 inh 4%, StopGo reporter 18%, SARS PLP yeast -1% and RE007 growth inh -7%.
Screening O=C(Nc1nccs1)c1cccc(N2C(=O)C3C4C=CC(C4)C3C2=O)c1 (stereo not given) returned NS1 inh 6%, StopGo reporter -20%, LASV entry inh 11%, MARV entry inh 4%, SARS PLP yeast 11%, Cruzain Triton 0.8%, RE007 growth inh -25% and Cruzain inh noDet 6%.
For COc1ccc(N(CC(=O)NCc2cccc(OC)c2)S(=O)(=O)c2c(C)noc2C)cc1 the results were NS1 inh -13%, StopGo reporter 0%, LASV entry inh 0%, MARV entry inh inconclusive, SARS PLP yeast inconclusive, Cruzain Triton -3.2%, RE007 growth inh -2% and Cruzain inh noDet 15%.
CCCCc1[nH]c(=O)c(C#N)c2c1CSC(C)(C)C2 was read as NS1 inh 18%, StopGo reporter 0%, LASV entry inh 7%, MARV entry inh 16%&16%, SARS PLP yeast -1%, Cruzain Triton -2.8%, RE007 growth inh 7% and Cruzain inh noDet 3%.
O=C(N/N=C/c1ccc(O)c([N+](=O)[O-])c1)c1ccncc1 was read as NS1 inh 5%, StopGo reporter -17%, SARS PLP yeast -2% and RE007 growth inh -3%.
Cc1cc(C)c(C(=O)COC(=O)[C@H](C)Nc2ccc(C(F)(F)F)cc2[N+](=O)[O-])c(C)c1 was read as NS1 inh 0%, StopGo reporter -23%, LASV entry inh inconclusive, MARV entry inh 11%, SARS PLP yeast 0%, Cruzain Triton -6.5%, RE007 growth inh 12% and Cruzain inh noDet -11%.
Screening COC(=O)c1cnc(Nc2cc(C)ccc2OC)c2ccccc12 returned NS1 inh -5%, StopGo reporter -16%, SARS PLP yeast 3% and RE007 growth inh -9%.
Cc1noc(C)c1C(=O)NNc1ccc(C(C)C)cc1 was read as NS1 inh -4%, StopGo reporter -18%, LASV entry inh -15%[46.1 µM], MARV entry inh 13%[46.1 µM], SARS PLP yeast -2% and RE007 growth inh 14%.
For Cc1ccc(OS(=O)(=O)c2c(C)nn(C)c2Cl)c(C)c1 the results were NS1 inh -31%, StopGo reporter -16%, LASV entry inh 0%[46.1 µM], MARV entry inh -1%[46.1 µM], SARS PLP yeast inconclusive and RE007 growth inh -2%.
Screening CC(NS(=O)(=O)c1ccc(CCC(=O)NCc2ccco2)cc1)c1ccccc1 (stereo not given) returned NS1 inh -16%, StopGo reporter 16%, LASV entry inh -16%, MARV entry inh 4%, SARS PLP yeast 10%, Cruzain Triton -3.2%, RE007 growth inh 0% and Cruzain inh noDet -1%.
For O=C(COC(=O)c1cc(S(=O)(=O)N2CCOCC2)ccc1Cl)Nc1ccc2c(c1)OCO2 the results were NS1 inh -2%, StopGo reporter 1%, LASV entry inh -10%, MARV entry inh 9%, SARS PLP yeast -3%, Cruzain Triton -1.9%, RE007 growth inh 16% and Cruzain inh noDet -7%.
`O=C(COCc1cc(-c2ccco2)on1)NC1CCCCC1` gave NS1 inh -23%, StopGo reporter 10%, SARS PLP yeast -2% and RE007 growth inh -15%.
CC(c1ccccc1)N(CC(=O)NC1CCCCC1)S(=O)(=O)c1cccc(C(F)(F)F)c1 (stereo not given) was read as NS1 inh 19%, StopGo reporter inconclusive, LASV entry inh inconclusive, MARV entry inh inconclusive, SARS PLP yeast -20%, Cruzain Triton -8.3%, RE007 growth inh -11% and Cruzain inh noDet 17%.
Cc1ccnc(NCc2cccc3ccccc23)c1 was read as NS1 inh -35%, StopGo reporter -13%, SARS PLP yeast -2% and RE007 growth inh -6%.
For CCn1cc(C2=NOC(C(=O)Nc3ccccc3C(=O)OC)C2)c(C)n1 (stereo not given) the results were NS1 inh 0%, StopGo reporter inconclusive, LASV entry inh -14%, MARV entry inh inconclusive, SARS PLP yeast 3%, Cruzain Triton 3.7%, RE007 growth inh 5% and Cruzain inh noDet inconclusive.
`CCCCn1c2ccccc2c2nnc(SCC(=O)Nc3ccc(NC(C)=O)cc3)nc21` gave StopGo reporter 0%, LASV entry inh 0%[46.1 µM], MARV entry inh -25%[46.1 µM], Cruzain Triton inconclusive and Cruzain inh noDet 20µM*.
`C1CCC2CCCCC2C1` (stereo not given) gave StopGo reporter 0%, SARS PLP yeast -11%, Cruzain Triton 1.6%, RE007 growth inh 3% and Cruzain inh noDet 3%.
For COc1cc([N+](=O)[O-])ccc1NC(=O)Nc1ccc2c(c1)OCCO2 the results were NS1 inh 2%, StopGo reporter -30%, MARV entry inh inconclusive, SARS PLP yeast 2% and RE007 growth inh 11%.
CCCc1nc2ccccc2c(C(=O)OCC(=O)c2ccc3c(c2)NC(=O)CO3)c1CC was read as NS1 inh 12%, StopGo reporter -17%, LASV entry inh -12%, MARV entry inh inconclusive, SARS PLP yeast 5%, Cruzain Triton -2.3%, RE007 growth inh -4%[3.69 µM] and Cruzain inh noDet -3%.
`O=C(CSc1nccc(=O)[nH]1)N1CCN(c2ccccc2)CC1` gave NS1 inh 8%, StopGo reporter -19%, LASV entry inh 15%, MARV entry inh 15%[46.1 µM], SARS PLP yeast 1% and RE007 growth inh -9%.
Cc1cc(C)c2[nH]c(C(=O)N3CCC(n4nccc4NC(=O)C4CC4)CC3)c(C)c2c1 was read as NS1 inh 14%, StopGo reporter -20%, LASV entry inh 4%, MARV entry inh -14%, SARS PLP yeast -3% and RE007 growth inh 6%.
COc1ccc(OC)c2c1CC(C)(C)NC2=O was read as NS1 inh -2%, StopGo reporter 7%, LASV entry inh 6%, MARV entry inh 32%, SARS PLP yeast 0%, Cruzain Triton -3.8%, RE007 growth inh 0% and Cruzain inh noDet 9%.
For CCOc1ccc(NC(=O)N[C@@H](Cc2ccccc2)C(=O)O)cc1 the results were NS1 inh -4%, StopGo reporter -3%, LASV entry inh 11%, MARV entry inh 1%[46.1 µM], SARS PLP yeast 0% and RE007 growth inh -2%.
For CC(=O)Nc1cccc(-c2nn[nH]n2)c1 the results were NS1 inh 10%, StopGo reporter 2%, LASV entry inh 2%, MARV entry inh -1%[46.1 µM], SARS PLP yeast 1% and RE007 growth inh 4%.
For Cc1oc2ncn(C)c(=O)c2c1C(=O)NCCCN1CCCC(C)C1 (stereo not given) the results were StopGo reporter 3%, LASV entry inh 14%[46.1 µM], Cruzain Triton -0.3% and Cruzain inh noDet 5%.
For CN(C)c1ccc(N/C=C/C(=O)c2ccco2)cc1 the results were NS1 inh -2%, StopGo reporter -82%, LASV entry inh inconclusive, MARV entry inh 3.7µM*, SARS PLP yeast 6%, Cruzain Triton -5.3%, RE007 growth inh -23% and Cruzain inh noDet -26%.
Screening O=C(NNC(=S)Nc1ccc(Cl)cc1Cl)c1ccncc1 returned NS1 inh 12%, StopGo reporter 30%[activator], LASV entry inh 19%, MARV entry inh inconclusive, SARS PLP yeast 7%, Cruzain Triton 1.5%, RE007 growth inh -3% and Cruzain inh noDet 5%.
`O=C(Cc1ccc(S(=O)(=O)N2CCOCC2)s1)Nc1ccccc1N1CCOCC1` gave StopGo reporter inconclusive, LASV entry inh 12%, MARV entry inh inconclusive, SARS PLP yeast -1% and RE007 growth inh -5%.
For CC(C)COCC(O)CC(Cc1ccccc1)C(=O)NN (stereo not given) the results were NS1 inh 2%, StopGo reporter -16%, LASV entry inh -2%, MARV entry inh -1%[46.1 µM], SARS PLP yeast 0% and RE007 growth inh 1%.
`O=[N+]([O-])c1cc(S(=O)(=O)N2CCOCC2)ccc1N1CCNCC1` gave StopGo reporter inconclusive, LASV entry inh 16%, MARV entry inh 28%, SARS PLP yeast 1% and RE007 growth inh 6%.
Screening CC(=O)c1ccc(S(=O)(=O)NC2CCSc3ccccc32)cc1 (stereo not given) returned NS1 inh -4%, StopGo reporter 1%, LASV entry inh -2%, MARV entry inh inconclusive, SARS PLP yeast -6% and RE007 growth inh 11%.
For COCCNc1ccc(-c2n[nH]c(=O)c3ccccc23)cc1[N+](=O)[O-] the results were NS1 inh 6%, StopGo reporter -11%, LASV entry inh inconclusive, MARV entry inh 0%[46.1 µM], SARS PLP yeast -5% and RE007 growth inh 0%.
For O=C(Nc1ccc(F)cc1F)c1cc2nc3c(c(C(F)(F)F)n2n1)CCCC3 the results were NS1 inh 6%, StopGo reporter -5%, LASV entry inh 2%, MARV entry inh inconclusive, SARS PLP yeast 19%, Cruzain Triton 4.5%, RE007 growth inh -2% and Cruzain inh noDet -29%.
Screening CN(C)C(CNC(=O)c1cc(-c2ccco2)nc2ccccc12)c1ccccc1 (stereo not given) returned StopGo reporter 37%, LASV entry inh 5%[46.1 µM], MARV entry inh 1%[46.1 µM], SARS PLP yeast 10µM* and RE007 growth inh 3%.
`CC(C)c1c(O)nc(SCCOc2ccc(Cl)cc2)[nH]c1=O` gave NS1 inh inconclusive, StopGo reporter -22%, LASV entry inh inconclusive, MARV entry inh 5%[46.1 µM], SARS PLP yeast -6% and RE007 growth inh 9%.
Screening Cn1cc(C(=O)c2cccc(Cl)c2)cc1C#N returned StopGo reporter -7%, LASV entry inh 11%[46.1 µM], MARV entry inh -4%[46.1 µM], SARS PLP yeast 3% and RE007 growth inh 5%.
`Cc1ccc(C(C)NC(=S)NCc2ccc(F)cc2)cc1C` (stereo not given) gave NS1 inh -48%, StopGo reporter 2%, SARS PLP yeast -10% and RE007 growth inh 0%.
CC(C)CCNC(=O)CCCn1c(=O)c2cccn2c2ccccc21 was read as StopGo reporter -10%, LASV entry inh -25%[46.1 µM], Cruzain Triton -3.4% and Cruzain inh noDet 10%.
Screening O=C(NCCSSCCNC(=O)c1ccccc1)c1ccccc1 returned StopGo reporter 11%, LASV entry inh inconclusive, MARV entry inh inconclusive and RE007 growth inh 10%.
`COc1ccc(/C=C(\C#N)C(=O)c2cccn2C)cc1` gave NS1 inh 1%, StopGo reporter 58%[activator], SARS PLP yeast 1% and RE007 growth inh 2%.

Screening data deposited in PubChem by National Center for Advancing Translational Sciences (NCATS).
